# Bioassay records from PubChem BioAssay.
# Beta2AR agonist: agonists of human beta-2 adrenergic receptor inducing internalization; Am2.2-beta2AR cells, FAP receptor internalization, flow cytometry; reference of the scale not given here; response, % (concentration not given with the values); 340,000 compounds, 0.43% hits; AID 504454;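 active = response above a set limit, near 3 SD of response in nonfluorescent compounds, cut at about 42% in these data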;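 also: stock transfer was 100 nL into about 11 µL; a reference agonist was the positive control; negative values mostly stem from fluorescent compounds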
# Target sequence (P07550 whole entry, looked up): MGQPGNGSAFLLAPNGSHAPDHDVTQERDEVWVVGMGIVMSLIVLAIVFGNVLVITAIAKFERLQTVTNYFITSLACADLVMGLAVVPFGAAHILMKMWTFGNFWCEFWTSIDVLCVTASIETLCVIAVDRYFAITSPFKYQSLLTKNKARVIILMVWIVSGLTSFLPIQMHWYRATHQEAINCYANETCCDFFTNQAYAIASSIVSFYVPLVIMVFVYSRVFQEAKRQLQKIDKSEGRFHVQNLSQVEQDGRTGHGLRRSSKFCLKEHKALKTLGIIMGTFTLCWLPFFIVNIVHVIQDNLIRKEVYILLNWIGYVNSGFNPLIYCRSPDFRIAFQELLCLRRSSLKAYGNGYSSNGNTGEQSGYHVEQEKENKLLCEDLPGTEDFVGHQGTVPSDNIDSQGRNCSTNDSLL
# T cruzi inh: T. cruzi replication inhibition. T. cruzi beta-gal in NIH3T3, luminescence, 90 h. inhibition, % (no concentration beside the values). 300,000 compounds, 1.4% hits. AID 1885;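 active = mean inhibition across valid replicates above about 55%, limit read from the data; inconclusive = mean below that limit but half or more replicates reach it; inactive = mean below it, under half of replicates reach it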;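 also: signal also drops with host cell toxicity which is not excluded here; 0% = plate median of DMSO wells and 100% = zero luminescence signal; higher percent means less beta-gal luminescence so fewer parasites; stock transfer was 50 nL into about 50 µL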
# ALR H2O2 inh: inhibitors of human sulfhydryl oxidase ALR. P55789. purified ALR, DTT oxidation, H2O2 HRP-luminol luminescence. inhibition, % (concentration not given with the values). 290,000 compounds, 3.8% hits. AID 485317;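 active = mean and each replicate at 75% or more; inconclusive = only one of the two met; inactive = neither met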;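 also: stock transfer was 7.5 nL into about 7.5 µL; 0% = neutral wells and 100% = wells with inactivated enzyme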
# Target sequence (P55789 whole entry, looked up): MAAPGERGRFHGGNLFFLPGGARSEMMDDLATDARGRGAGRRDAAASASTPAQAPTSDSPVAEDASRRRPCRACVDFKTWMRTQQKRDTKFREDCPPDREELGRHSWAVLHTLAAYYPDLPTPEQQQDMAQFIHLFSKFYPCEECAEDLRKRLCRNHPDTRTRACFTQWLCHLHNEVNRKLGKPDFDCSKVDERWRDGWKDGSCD
# Beta apoptosis: beta cell apoptosis inhibition; protection from apoptosis, % (test concentration not listed); 300,000 compounds, 0.8% hits; INS-1E cytokine-induced death, ATP luminescence, 48 h; percent of positive-control rescue, neutral wells zero; AID 435005;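 active = all replicates at 75% or more, or half of them and the mean; inconclusive = half reach 75% but not the mean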;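 also: 0% = cytokine-treated negative control wells and 100% = positive control rescue; higher means more ATP so stronger rescue from cytokine killing; wells of about 40 µL received 100 nL stock; the first replicate is given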
# Calb FLC: C. albicans growth modulation with fluconazole. growth inhibition, % (test concentration not listed). 300,000 compounds, 0.57% hits. C. albicans CaCi-2 (fluconazole-resistant clinical isolate) + fluconazole, Alamar Blue growth, 48 h;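 active = most replicates above 75%; inconclusive = exactly half above 75%; inactive = most below 75%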;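 also: all wells also contain fluconazole at 8 µg/ml as a sub-toxic cotreatment; 0% = median of DMSO wells and 100% = median of geldanamycin control wells; wells of about 8 µL received 7.5 nL stock; the first replicate is given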
# A1 inh: inhibitors of the anti-apoptotic protein A1, read as caspase activation. MEF A1-2A-BIM cells, Caspase-Glo 3/7 luminescence, 3 h; percent of clofoctol response, vehicle zero. caspase activation, % (test concentration not listed). 330,000 compounds, 0.066% hits. AID 2462;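 active = over half of replicate activation scores above 10%, or exactly half above 10 with the replicate mean above 10; inconclusive = replicate mean below 10 yet half the replicates above 10; inactive = over half of replicates below 10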;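 also: wells of about 30 µL received 50 nL stock; many hits fall short of the cut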
# LANA-H2A inh: blocks KSHV LANA binding to histone H2A/H2B; cell-free LANA-H2A/H2B peptide, fluorescence polarization; inhibition, % (test concentration not listed); 320,000 compounds, 0.6% hits; in the data active = inhibition mostly above about 10%, no sharp cut-off; inactive = mostly below about 6.7%;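 also: stock transfer was 7.5 nL into about 10 µL; 0% = median of vehicle wells and 100% = median of positive control wells; one replicate is shown; the record names a cut of 25% in any replicate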
# rRNA inh HTS: inhibits bacterial ribosomal RNA function over humanized ribosomes; GFP signal change (wild-type ribosome), % (no concentration beside the values); E. coli WT GFP vs humanized-ribosome RFP mutants, fluorescence, 24 h; active compounds read low; DMSO median 0, no signal -100; 350,000 compounds, 1.6% hits;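 active = significant combined selectivity score with lowered wild-type GFP, culture density cut under 30%, mutant RFP and density less affected; inactive = any of these conditions unmet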; also: one replicate is shown; some compounds called inactive have numbers as strong as hits
# rRNA inh HTS OD600: second read-out of rRNA inh HTS, no call of its own (marks repeat the call); OD600 change, %; measured here: OD600 growth;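 optical density of the mix in the first replicate; 0 = DMSO median and -100 = no signal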
# rRNA inh HTS RFP: also measured in rRNA inh HTS; calls as there; RFP signal change, %; measured here: RFP humanized mutant strains;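 first replicate; 0 = DMSO median and -100 = no signal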
# Numbers without * were called inactive; ? = inconclusive; / = not tested or not shown. Some of the compounds tested. The share of hits here may be higher or lower than overall.
SMILES,Beta2AR agonist,T cruzi inh,ALR H2O2 inh,Beta apoptosis,Calb FLC,A1 inh,LANA-H2A inh,rRNA inh HTS,rRNA inh HTS OD600,rRNA inh HTS RFP
CCCc1ccc(-c2csc(NC(=O)C3=COCCO3)n2)cc1,-5,/,5,-1,/,-0.4,6.4,-1,-13,6.1
CCOc1cccc(C(=O)Nc2cc(C)ccc2NC(=O)c2ccco2)c1,-1,-1,/,/,-18,/,/,-10,-25,0.6
Cc1nn(CC(=O)c2ccc(Cl)s2)c(C)c1[N+](=O)[O-],4,-2,-2,-4,-9,0.0,-7.3,/,/,/
COc1ccc(Cl)cc1NC(=O)CC(C)=O,-6,-12,48,-5,-4,-0.3,-5.2,/,/,/
CCCCCC(=O)Nc1cc(S(=O)(=O)N2CCCCC2)ccc1N1CCOCC1,4,13,-5,2,3,0.2,-1.0,0,-1,-0.6
CCOC(=O)COc1ccc(S(=O)(=O)N2CCN(c3ccc(OC)cc3)CC2)cc1,1,-8,11,9,-4,3.8,-2.9,17,7,2.7
COc1cc(C(=O)Nc2ccc(F)cc2Cl)ccc1OCC(=O)N1CCOCC1,-4,-6,-3,-2,2,0.7,-3.2,13,14,0.9
O=C(Nc1cccc(Cl)c1)c1nc[nH]c1C(=O)NCc1ccccc1,9,/,6,-2,/,?,5.6,16,15,-2.3
COC(=O)Nc1ccc(S(=O)(=O)N(C)C)cc1,1,1,9,-3,-2,1.7,1.0,/,/,/
CCCOc1ccc(C2C(C(=O)c3ccco3)=C(O)C(=O)N2CCCn2ccnc2)cc1 (configuration not stated),-6,5,12,/,-3,0.7,-3.2,/,/,/
COc1cc(C(=O)N2CCN(C)CC2)cc(OC)c1OC,-4,-19,-23,-7,0,0.7,-1.0,9,7,-1.1
CCOc1ccc(NC(=O)CN(C)C(=O)C2CC(=O)N(CCc3ccccc3)C2)cc1OCC (configuration not stated),-6,1,-6,1,1,0.6,-3.0,4,3,-0.7
O=C(CSc1nnc(-c2ccc3c(c2)OCO3)o1)Nc1ncc(C(F)(F)F)cc1Cl,6,-2,/,-5,66,-0.9,-0.8,-25,-48,-7.3
COc1ccc(C2C(C(=O)c3ccco3)=C(O)C(=O)N2CC2CCCO2)c(OC)c1 (configuration not stated),-6,-16,/,-2,-3,0.9,-8.3,2,6,-2.5
Cc1ccc(Oc2ccc(S(=O)(=O)N3CCOCC3)cc2C(N)=O)c(-n2nc3ccccc3n2)c1,21,-2,/,9,9,1.1,-5.8,/,/,/
Cc1ccccc1NS(=O)(=O)c1ccc(NC(=O)c2ccco2)cc1,-24,-3,-1,3,0,-0.4,-0.1,/,/,/
N#Cc1c2ccc([N+](=O)[O-])cc2[n+]([O-])n1-c1ccccc1,15,/,-2,101*,/,0.8,4.3,7,3,-3.8
COc1cc2[nH]c(=O)n(Cc3ccc(C(=O)N4CCC(N5CCCCC5)CC4)cc3)c(=O)c2cc1OC,-10,-11,-5,-10,-9,0.5,-7.5,/,/,/
COc1ccc(NC(=O)CSc2nc(=O)n(CCN3CCOCC3)c3c2CCCC3)c(OC)c1,-21,-10,5,2,1,-0.3,2.0,1,-9,-1.2
CC(C)CC(=O)Nc1nnc(S(=O)(=O)N2c3ccccc3CC2C)s1 (configuration not stated),1,-6,-4,-3,11,-0.1,0.8,10,19,-1.9
CCCc1ccc(C(=O)[C@@H]2[C@@H](C(C)=O)N3c4ccc(F)cc4C=C[C@@H]3[C@@]23C(=O)Nc2ccccc23)cc1,28,-7,-14,-6,0,-0.2,5.9,-6,-9,13
COc1ccc(C(=O)N/N=C/c2c(C)[nH]c(=O)[nH]c2=O)cc1,-6,-12,-9,4,9,1.3,-1.0,23,12,1.6
COc1ccc(OCC(=O)NCCC2=CCCCC2)c([N+](=O)[O-])c1,-6,12,-41,-3,0,-0.2,3.1,/,/,/
O=C(NCCN1C(=O)S/C(=C/c2ccccc2)C1=O)C1CC(=O)N(Cc2ccccc2)C1 (configuration not stated),-7,/,2,-4,/,-0.5,-3.8,-6,-28,0.6
COc1ccc(OC)c(Nc2ccc(C(=O)O)cc2[N+](=O)[O-])c1,-3,3,-1,-4,12,-0.6,1.2,0,2,-1.7
# More structures follow:
SMILES,Beta2AR agonist,T cruzi inh,ALR H2O2 inh,Beta apoptosis,Calb FLC,A1 inh,LANA-H2A inh,rRNA inh HTS,rRNA inh HTS OD600,rRNA inh HTS RFP
COc1ccc2c(CC(=O)NNC(=O)c3ccccc3F)coc2c1,-5,/,-9,-9,/,0.3,-1.7,4,5,1.3
O=S(=O)(c1ccccc1)N1N=C(c2cccs2)CC1c1ccc(F)cc1 (configuration not stated),31,-11,-6,2,4,0.2,-1.3,/,/,/
C/C(=N/NC(=O)c1ccoc1C)c1cccc(NC(=O)C(F)(F)F)c1,-7,9,0,5,-3,-1.7,-2.2,/,/,/
CC(C)(C)Cc1nc(-c2ccc(Cl)cc2)no1,4,-8,-3,-8,-22,0.0,-3.2,/,/,/
COC(=O)N1[C@H](Cc2ccccc2)C=C[C@]1(C)C(=O)NCc1ccccn1,4,9,-11,-3,-5,1.3,-1.6,/,/,/
COc1cc(/C=C(/C#N)C(=O)Nc2ccc(Cl)cc2)ccc1Oc1nc(Cl)ncc1F,2,-4,-7,0,8,3.2,-1.8,3,0,6.5
COC(=O)C(CCSC)NC(=O)Cn1ncc2c(=O)oc3ccc(C)cc3c21 (configuration not stated),-2,-22,-28,-6,-1,0.6,-2.5,5,8,-1.6
Cc1ccc(CN2CC(C(=O)Nc3cc(C)ccn3)CC2=O)cc1 (configuration not stated),4,-8,-12,-26,5,-0.2,2.8,3,4,0.6
CCCN(CCC)C(=O)CSc1nc2ccsc2c(=O)n1NC(=O)c1ccccc1,4,9,9,-9,-4,0.1,0.8,/,/,/
COc1ccccc1N1CCN(C(=O)c2cc(=O)c3cc(C)ccc3o2)CC1,-10,-17,1,-7,3,0.2,1.4,1,9,-2.0
CCCCOc1ccc(C(=O)NCC2(c3ccccc3)CCOCC2)cc1,14,6,-12,-2,0,0.7,-1.5,/,/,/
Cc1ccc(SCC(=O)OCC(=O)N(C)CC(=O)Nc2ccccc2Cl)cc1,4,-3,/,-1,0,-0.2,-4.0,-2,1,0.0
COc1ccc(NC2(c3ccc(Cl)cc3)C(=O)c3ccccc3C2=O)cc1,15,-1,11,-7,-6,-0.9,-3.0,/,/,/
CCOC(=O)c1cc(C#N)c(Oc2cccc(C(F)(F)F)c2)nc1-c1ccccc1,-4,26,-12,44,20,1.6,0.8,/,/,/
Cc1ccc(C)c(C(=O)CSc2nnc(C)s2)c1,-1,-8,/,1,10,0.3,1.7,-7,2,4.2
CCOc1ccccc1CNCCN1CCOCC1,8,-15,-7,1,-5,-0.1,3.6,/,/,/
CCOc1cc(C=O)cc(Cl)c1OCC(N)=O,4,2,-2,1,0,1.4,-2.8,12,8,5.6
CCOc1ccc(NC(=O)Nc2ccon2)cc1,-26,-21,-2,1,-5,-0.4,-1.3,9,2,-0.3
CN1CCN(CCCNC(=O)c2cn(C)c3ccc(S(=O)(=O)N(C)C)cc3c2=O)CC1,4,/,-2,-3,/,0.3,2.0,9,6,1.7
CCOc1ccc(S(=O)(=O)NC2=NCCCCC2)cc1,-4,/,/,1,/,1.4,4.6,6,10,3.0
COc1cc2c(cc1OC)-c1cc(Nc3ccc(F)cc3)nc(=O)n1CC2,-2,-4,-3,2,-2,0.3,0.1,-3,3,5.5
Cc1cc(C(=O)NCc2ccco2)on1,9,-1,-1,-1,-11,1.2,0.1,13,21,5.1
O=C(CCN1C(=O)c2cccc([N+](=O)[O-])c2C1=O)Nc1nccs1,-13,-10,-6,3,7,-0.1,1.8,6,0,-0.6
CCCCC(CC)CN=C(N)NC(N)=NCCCCCCN=C(N)NC(N)=NCC(CC)CCCC (configuration not stated),-552,/,-25,114*,/,-0.4,-7.9,/,/,/
O=C(OCC(=O)N1CCCC1=O)c1ccc(F)c(S(=O)(=O)N2CCOCC2)c1,2,-6,-23,-2,-4,0.1,1.4,5,14,0.5

# Arranged by count of non-hydrogen atoms (high to low): some entries from above
SMILES,Beta2AR agonist,T cruzi inh,ALR H2O2 inh,Beta apoptosis,Calb FLC,A1 inh,LANA-H2A inh,rRNA inh HTS,rRNA inh HTS OD600,rRNA inh HTS RFP
CCCOc1ccc(C2C(C(=O)c3ccco3)=C(O)C(=O)N2CCCn2ccnc2)cc1 (configuration not stated),-6,5,12,/,-3,0.7,-3.2,/,/,/
CCCN(CCC)C(=O)CSc1nc2ccsc2c(=O)n1NC(=O)c1ccccc1,4,9,9,-9,-4,0.1,0.8,/,/,/
COc1cc2c(cc1OC)-c1cc(Nc3ccc(F)cc3)nc(=O)n1CC2,-2,-4,-3,2,-2,0.3,0.1,-3,3,5.5
O=S(=O)(c1ccccc1)N1N=C(c2cccs2)CC1c1ccc(F)cc1 (configuration not stated),31,-11,-6,2,4,0.2,-1.3,/,/,/
Cc1ccccc1NS(=O)(=O)c1ccc(NC(=O)c2ccco2)cc1,-24,-3,-1,3,0,-0.4,-0.1,/,/,/
CC(C)(C)Cc1nc(-c2ccc(Cl)cc2)no1,4,-8,-3,-8,-22,0.0,-3.2,/,/,/

# New compounds follow:
SMILES,Beta2AR agonist,T cruzi inh,ALR H2O2 inh,Beta apoptosis,Calb FLC,A1 inh,LANA-H2A inh,rRNA inh HTS,rRNA inh HTS OD600,rRNA inh HTS RFP
Cc1nnc(N2C(=O)c3cccc4c([N+](=O)[O-])ccc(c34)C2=O)s1,25,-33,17,1,29,0.4,1.3,46,6,-1.8
O=C(O)c1cccc(N/N=C/C2=C(Cl)c3cc(Cl)ccc3SC2)c1,9,-6,/,/,5,/,/,-21,-27,-4.3
O=C(c1ccc(F)cc1)n1cc(C(=S)N2CCOCC2)c2ccccc21,-13,12,-1,-12,-3,0.4,-6.1,-18,-29,-8.8
COc1ccc(C=C2C(=O)OC(C)(C)OC2=O)cc1OC,-8,-15,/,0,-13,0.1,0.2,9,10,0.1
Cc1ccc(CNC(=O)CN2C(=O)COc3ccc(S(=O)(=O)N4CCCCC4)cc32)o1,-2,-13,7,-4,4,1.1,3.7,12,13,-0.1
CCOC(=O)N1CCN(CCC(=O)Nc2ccc(Br)c(C)c2)CC1,0,24,-1,2,-8,0.6,-3.2,-23*,-2.6*,1.3*

# Reprinted at random: 4 records from the list
SMILES,Beta2AR agonist,T cruzi inh,ALR H2O2 inh,Beta apoptosis,Calb FLC,A1 inh,LANA-H2A inh,rRNA inh HTS,rRNA inh HTS OD600,rRNA inh HTS RFP
COc1ccc(C=C2C(=O)OC(C)(C)OC2=O)cc1OC,-8,-15,/,0,-13,0.1,0.2,9,10,0.1
O=C(c1ccc(F)cc1)n1cc(C(=S)N2CCOCC2)c2ccccc21,-13,12,-1,-12,-3,0.4,-6.1,-18,-29,-8.8
O=C(O)c1cccc(N/N=C/C2=C(Cl)c3cc(Cl)ccc3SC2)c1,9,-6,/,/,5,/,/,-21,-27,-4.3
CCOC(=O)N1CCN(CCC(=O)Nc2ccc(Br)c(C)c2)CC1,0,24,-1,2,-8,0.6,-3.2,-23*,-2.6*,1.3*
